StopGo FLuc = Primary qHTS Assay for Foot and Mouth Disease Virus Antivirals against NCGC Sytravon and CBC Compound Libraries: Firefly Luciferase Signal; HEK cells with a luciferase reporter of 2A StopGo recoding; Potency, µM (top dose mostly 57.5 µM), inactives show at the highest dose signal change, negative = less light; 120,000 compounds, 0.23% hits; AID 1745856, 2022; active = well fitted falling curve with a large enough effect; inconclusive = small, poorly fitted or top-dose-only effect; inactive = no such curve, though single readings can be large or run the other way; also: nearly all actives have a fitted effect of over 60% in size; overnight with compound
StopGo RLuc = Primary qHTS Assay for Foot and Mouth Disease Virus Antivirals against NCGC Sytravon and CBC Compound Libraries: Renilla Luciferase Signal | 120,000 compounds, 0.32% hits | Potency, µM (highest dose often 57.5 µM), inactives show at the top dose signal change, negative = less light | HEK cells with a luciferase reporter of 2A StopGo recoding; active means well fitted falling curve with a large enough effect; inconclusive means small, poorly fitted or top-dose-only effect; inactive means no such curve, though single readings can be large or run the other way; also: nearly all actives have a fitted effect of over 55% in size; overnight with compound
* = called active by the depositor; ? = inconclusive; & = joins results of further samples; [ ] = another dose, or the depositor's remark. % is scaled to controls: 0 for no effect and ±100 for the full control effect; potency is read from the fitted curve at half-maximal effect. A portion of the library. The share of hits here may be higher or lower than overall.

#	compound	StopGo FLuc	StopGo RLuc
1	CC(=O)Nc1c(C)nn(-c2ccccc2)c1N1CCC(C(=O)Nc2cc(F)ccc2F)CC1	-14%	-2%
2	COc1cc2c(cc1OC)C(C)N(CC(=O)Nc1ccc(N(C)C)cc1)CC2 (stereo not given)	-7%	-8%
3	Cc1cc(C)cc(Nc2cc(-c3ccccc3)nc(C)n2)c1	-12%	0%
4	Nc1nonc1-c1nc2ccccc2n1Cc1c(Cl)cccc1Cl	19%	33%[activator]
5	Cc1oc(-c2cccs2)nc1CC(=O)Nc1ccc(F)cc1Cl	6%	24%
6	Cc1cccc(-n2nnnc2Sc2nnnn2-c2ccccc2)c1C	-27%	?
7	NCC1CCN(CCc2ccc(F)cc2)CC1	-9%	-9%
8	Cc1ccc(C(=O)NCC(=O)N(C)CC(=O)Nc2ccccc2Br)s1	12%	8%
9	COC(=O)CN1C(C(=O)c2ccccc2)=C(OC(=O)c2ccccc2)c2ccccc2S1(=O)=O	28%	2%
10	Cc1cccc(NC(=O)OCc2ccccc2)c1	137%[activator]	0%
11	Cc1ccc(-n2c(=O)c3cccnc3n2CC(=O)Nc2cc(C)cc(C)c2)cc1	-16%	-5%
12	CCCCNc1cc(C(=O)O)cc(S(N)(=O)=O)c1Oc1ccccc1	-20%	-15%
13	Cc1oc(-c2ccc(C(=O)Nc3cc(F)ccc3F)cc2)nc1COc1ccccc1	4%	-9%
14	COc1cccc(CNC(=O)Nc2cc(C(=O)NCc3cccc(F)c3)ccc2N2CCCC2)c1	5%	67%[activator]
15	Cc1cccc2c1NC(=O)C21CC(=O)Nc2c1cnn2-c1ccccc1 (stereo not given)	-11%	-5%
16	O=C(CC1CCCO1)NC(c1cccs1)C1CCCC1 (stereo not given)	-8%	8%
17	O=C(Nc1nc(-c2cccs2)cs1)C1CC(=O)N(c2ccccc2F)C1 (stereo not given)	10%	-3%
18	CCCCN(CCCC)CCCNC(=O)Cn1cc2c(n1)-c1c(oc(C(=O)N3CCCC3)c1C)CC2	-18%	-5%
19	CC1CCN(S(=O)(=O)c2ccc3c(c2)CCC(=O)N3CC(=O)Nc2cccc(C#N)c2)CC1	-14%	3%
20	O=C(Cn1ncc2ccsc2c1=O)N1CCN(c2ccc(F)cc2)CC1	-3%	-7%
21	O=C(Nc1ccc(Cl)cc1)c1cc2c(-c3ccccc3)nn(-c3ccccc3)c2s1	4%	-4%
22	N#Cc1nc(COc2cccc(Cl)c2)oc1NCc1ccncc1	0%	25%
23	O=C(COC(=O)C(Cc1c[nH]c2ccccc12)NC(=O)c1ccc(Cl)cc1)c1ccc(Cl)cc1 (stereo not given)	-17%	-11%
24	CC1CCC(NC(=O)c2ccc(CS(=O)(=O)c3c(Cl)cccc3Cl)o2)CC1 (stereo not given)	-10%	68%[activator]
25	FC(F)(F)c1cccc(NC(=S)NCc2cccs2)c1	8%	198%[activator]
26	CC(=O)c1ccc(N2CCN(c3ncnc4c3c(-c3ccccc3)cn4-c3cccc(C)c3)CC2)cc1	-19%	-15%
27	C=C(C)Cn1c(SCC(=O)Nc2cc(C)ccc2C)nc2sc3c(c2c1=O)CCCC3	1%	4%
28	CCCCn1c(SCC(=O)c2ccccc2)nc2sc3c(c2c1=O)CCCC3	-7%	-8%
29	COc1ccc(-c2nc3scc(CCNS(=O)(=O)c4ccc5c(c4)OCCO5)n3n2)cc1	?	-39%
30	CCc1ccc(Cn2c(CNS(=O)(=O)c3ccc(F)c(Cl)c3)nc3cccnc32)cc1	0%	193%[activator]

Whole records from above. Order of values: StopGo FLuc, StopGo RLuc
Cc1oc(-c2cccs2)nc1CC(=O)Nc1ccc(F)cc1Cl reads 6%, 24%
CCCCN(CCCC)CCCNC(=O)Cn1cc2c(n1)-c1c(oc(C(=O)N3CCCC3)c1C)CC2 reads -18%, -5%
FC(F)(F)c1cccc(NC(=S)NCc2cccs2)c1 reads 8%, 198%[activator]

Carrying on:
#	compound	StopGo FLuc	StopGo RLuc
31	CCOc1ccc(NC(=O)c2cc(OC)nc3ccccc23)cc1	34%[activator]	22%
32	Cc1ccc(C(=O)/C=C/c2c(C)n[nH]c2C)cc1C	191%[activator]	-7%
33	CN(C)CCCNC(C(=O)O)c1cn(CCC(=O)O)c2cc(Br)ccc12 (stereo not given)	5%	0%
34	COc1ccc2cnn(CC(=O)N3CCN(Cc4ccccc4)CC3)c(=O)c2c1OC	-8%	-19%
35	Cc1cc(C)c(NC(=O)c2ncoc2-c2ccco2)c(C)c1	-11%	-7%
36	CCOc1cc(C(=O)Nc2ccc(-c3nc4ncccc4o3)cc2C)cc(OCC)c1OCC	0%	-3%
37	Cc1ccc(CCNC(=O)CCSCc2ccccc2Cl)cc1	-20%	-9%
38	CCCCc1cc(=O)oc2cc(OCC(=O)NCc3cccnc3)c(Cl)cc12	3%	7%
39	Cc1ccc(CN(C(=O)c2ccccc2)c2ccccn2)o1	26%&18%	19%&17%
40	O=Cc1cccn1-c1ccc(Br)cc1	29%	9%
41	CCC(C)OC(=O)/C(C#N)=C/c1ccc(-c2ccc(Br)cc2)o1 (stereo not given)	-8%	-10%
42	COc1ccccc1-c1c(C)nn2c(N3CCN(c4ccccc4)CC3)cc(C)nc12	-9%	7%
43	Cc1nc2ccn(Cc3ccccc3)c(=O)c2cc1C(=O)Nc1ccc(F)cc1Cl	-12%	-4%
44	O=C(NCc1ccccc1)c1ccc2c(c1)N(Cc1ccccc1)C(=O)c1ccccc1S2(=O)=O	0%	68%[activator]
45	Cc1ccc(CN2C(=O)C(O)(CC(=O)c3ccc(C)cc3)c3ccccc32)cc1 (stereo not given)	0%	0%
46	CCc1ccc(CNC(=O)c2cc3c(s2)-c2ccccc2OC3)cc1	0%	24%
47	N#C/C(=C/C1=Cc2cc(Cl)ccc2OC1)c1nc2ccccc2[nH]1	1%	9%
48	CN(C(=O)Cc1nn(C)c(=O)c2ccccc12)C1CCCCCCC1	?	?
49	O=S1(=O)c2c(NCc3ccco3)cccc2Oc2ccccc2CN1Cc1cn(Cc2ccccc2C(F)(F)F)nn1	-4%	100%[activator]
50	Cc1cccc(CCNC(=O)CCS(=O)(=O)c2cc3c(cc2C)NC(=O)CO3)c1	0%	-3%
51	CCOc1ccc2oc(=O)cc(CN3CCN(C(=O)c4cccc(Cl)c4)CC3)c2c1	-25%	-22%
52	Cc1ccc2cccc(OCCOc3ccc(C#N)cc3)c2n1	0%	16%
53	CCC1CCCCN1C(=O)CSc1nnc(-c2cccs2)n1N (stereo not given)	6%	-6%
54	CC(=O)NC(C)C(=O)NC(C)c1ccc(Cl)cc1 (stereo not given)	5%	-1%
55	COc1ccc(-n2c(/C=C/c3cccc4ccccc34)nc3ccccc3c2=O)cc1Cl	?	?
56	CCNC(=O)NC(=O)CN(C)Cc1ccccc1	4%	7%
57	COc1ccc(C)cc1NC(=O)CC(c1cccc(F)c1)n1cccc1 (stereo not given)	-22%	-24%
58	Cc1oc(-c2ccc(C(=O)NCc3ccc(Cl)cc3)cc2)nc1CS(=O)(=O)c1ccccc1	47%[activator]	2%
59	FC(F)(F)c1ccc(Cl)c(N/N=C/c2cccc(Cl)c2Cl)c1	5%	9%
60	Cc1cc(C)c2c(NC(=O)c3ccccc3)c(C(=O)Nc3ccc(F)cc3)sc2n1	-6%	0%

Reprinted at random: seven records from the list
#	compound	StopGo FLuc	StopGo RLuc
60	Cc1cc(C)c2c(NC(=O)c3ccccc3)c(C(=O)Nc3ccc(F)cc3)sc2n1	-6%	0%
37	Cc1ccc(CCNC(=O)CCSCc2ccccc2Cl)cc1	-20%	-9%
45	Cc1ccc(CN2C(=O)C(O)(CC(=O)c3ccc(C)cc3)c3ccccc32)cc1 (stereo not given)	0%	0%
31	CCOc1ccc(NC(=O)c2cc(OC)nc3ccccc23)cc1	34%[activator]	22%
46	CCc1ccc(CNC(=O)c2cc3c(s2)-c2ccccc2OC3)cc1	0%	24%
49	O=S1(=O)c2c(NCc3ccco3)cccc2Oc2ccccc2CN1Cc1cn(Cc2ccccc2C(F)(F)F)nn1	-4%	100%[activator]
35	Cc1cc(C)c(NC(=O)c2ncoc2-c2ccco2)c(C)c1	-11%	-7%

(next part)
#	compound	StopGo FLuc	StopGo RLuc
61	CCCN(Cc1cc2cc(C)ccc2[nH]c1=O)C(=O)c1cccnc1	-1%	-10%
62	Cc1ccc(NC(=O)N2CCC(CN3CCC(C)CC3)CC2)cc1F	26%	7%
63	CCN(CC)CCNC(=O)c1nc(-c2ccc3[nH]ccc3c2)no1	9%	11%
64	Clc1ccccc1Cc1cn2cc(-c3ccccc3)nc2s1	327%[activator]	19%
65	Cc1cc(C(=O)NCc2ccncc2)sc1C	13%	3%
66	Cc1ccc(-c2nn3c(=O)cc(CN4CCN(C(=O)c5ccc(C(C)(C)C)cc5)CC4)nc3s2)cc1	-1%	-6%
67	CCOC(=O)c1sc(NC(C)CC)nc1C(F)(F)F (stereo not given)	33%[activator]	4%
68	CCn1c(C(=O)N2CCC(C(=O)NCCc3ccccc3)CC2)cc2sccc21	-8%	7%
69	COC(=O)c1c(C)sc(-c2c(-c3ccc(OC)c(F)c3)[nH]c3c2c(=O)n(C)c(=O)n3C)c1O	-10%	-7%
70	CCc1cc(=O)oc2cc(C)cc(OC(C)C(=O)NC3CC(C)(C)NC(C)(C)C3)c12 (stereo not given)	-8%	-6%
71	COc1ccc(-c2noc(CNS(=O)(=O)c3ccc(Br)cc3)n2)cc1OC	-21%	9%
72	CC1=C(C)CC(C(=O)N2CCc3ccccc3C2)C(C(=O)O)C1 (stereo not given)	3%	17%
73	N#Cc1ccc(/C=N/Nc2cccc(Cl)c2)cc1	57%[activator]	-6%
74	CCC/C(=N\N=C(/CCC)c1ccccc1)c1ccccc1	4%	14%
75	COc1cccc(CNC(=O)C(=O)NCC(c2cccs2)S(=O)(=O)c2ccccc2)c1 (stereo not given)	-7%	-9%
76	COc1ccc(NC(=O)n2ncc3cc(Cl)ccc32)c(OC)c1	13%	-8%
77	O=C(Nc1ccc(Oc2ccccc2)cc1)C1CCN(S(=O)(=O)c2ccccc2)CC1	?	?
78	N#CCCCSc1ccc2c(c1)OCCCO2	0%	18%
79	CCOc1ccc(CNC(=O)c2ccc3c(c2)c(C)c(C)n3C)cc1	10%	14%
80	CCCCn1c(=O)[nH]c(=O)c2c1nc(CNc1cccc(F)c1)n2CCC(C)C	-27%	-18%
81	CC(NC(=O)Cn1cnc2c1c(=O)n(C)c(=O)n2C)c1ccccc1 (stereo not given)	17%	4%
82	CCC(=O)N1CCN(c2ccc(NC(=O)c3cc4ccccc4cc3OC)cc2Cl)CC1	-22%	3%
83	CCC(C)NC(=O)c1snnc1-c1ccc(OC)cc1 (stereo not given)	5%	0%
84	Cc1cc2oc(C(=O)NCCc3ccc(S(N)(=O)=O)cc3)cc(=O)c2cc1C	-7%	1%
85	O=C(/C=C/c1ccc(Br)cc1)NC1CCCC1	152%[activator]	7%
86	CCCC(=O)N1CCCN(CC(=O)Nc2cccc(F)c2)CC1	11%	1%
87	CC(C)OC(=O)c1ccn[nH]1	19%	-15%
88	Cc1oc(-c2ccccc2F)nc1CS(=O)(=O)CC(=O)NCCN(C)C	3%	-6%
89	N#Cc1ccc(NC(=O)CCC2CCCC2)cc1Cl	47%[activator]	134%[activator]
90	CCOC(=O)c1cnc2ccccc2c1N1CCC(O)CC1	33%[activator]	22%

Continued:
#	compound	StopGo FLuc	StopGo RLuc
91	COc1ccccc1-c1nc2n(n1)C(c1ccccc1Cl)C(C(=O)Nc1cccnc1)=C(C)N2 (stereo not given)	-9%	2%
92	CSc1ccccc1C(=O)NC(c1ccccc1)c1ccccc1	45%[activator]	21%
93	O=C(Nc1ccc(Br)cc1)c1cccc(C(=O)Nc2ccc(Br)cc2)c1	25%	-11%
94	CCc1ccc(S(=O)(=O)[C@H]2CS(=O)(=O)C[C@@H]2N2CCN(c3ncccn3)CC2)cc1	-16%	-15%
95	Cc1[nH]c2ccc(C(=O)OC(C)C(=O)N3CCOCC3)cc2c1C (stereo not given)	0%	-3%
96	Cc1c(CCC(=O)NC2CCCCCC2)c(=O)oc2cc(O)ccc12	-9%	21%
97	CC[C@]1(O)CC[C@H]2[C@@H]3CCC4=CCCC[C@@H]4[C@H]3CC[C@@]21C	-5%[11.5 µM]	12%
98	COc1ccc(/C=C/C(=O)Sc2ccc(C)cc2)cc1	5%	-13%
99	Cc1cccc(C(=O)Nc2cccc(C(=O)OCc3cc(=O)n4nc(C(C)C)sc4n3)c2)c1	?	-1%
100	O=C(CN1CCN(c2ccccc2F)CC1)NCCc1c[nH]c2ccccc12	-6%	16%
101	CSc1ccc(CN(C)C(=O)Cn2c(=O)n(C)c3ccccc32)cc1	8%	26%
102	Cn1nc(C(=O)OCc2ccc(C(C)(C)C)cc2)c2ccccc2c1=O	?	?
103	O=C(CSc1nc2ccccc2o1)NCC1CCCCC1	-4%	-7%
104	COc1ccc(F)cc1C1=NN(C(=O)C(C)C)C(c2ccc3nccnc3c2)C1 (stereo not given)	1%	1%
